# Bioassay records (PubChem BioAssay)
# FGF22 binding: binders of recombinant human FGF22 by thermal shift; calls only at 9.99 µM; Q9HCT0; 1.5% of 340,000 active; SYPRO orange fluorescence; percent of sucrose octasulfate shift, DMSO zero; AID 651658;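 active = melting point raised past a set limit in the mean and every replicate; three in four hits are not shown here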
# LANA-H2A inh: blocks KSHV LANA binding to histone H2A/H2B; AID 2629; 0.6% of 320,000 active; inhibition, % (no concentration beside the values); cell-free LANA-H2A/H2B peptide, fluorescence polarization; in the data active = inhibition mostly above about 10%, no sharp cut-off; inactive = mostly below about 6.7%;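 note: stock transfer was 7.5 nL into about 10 µL; 0% = median of vehicle wells and 100% = median of positive control wells; one replicate is shown; the record names a cut of 25% in any replicate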
# Target sequence (Q9QR71 whole entry, looked up): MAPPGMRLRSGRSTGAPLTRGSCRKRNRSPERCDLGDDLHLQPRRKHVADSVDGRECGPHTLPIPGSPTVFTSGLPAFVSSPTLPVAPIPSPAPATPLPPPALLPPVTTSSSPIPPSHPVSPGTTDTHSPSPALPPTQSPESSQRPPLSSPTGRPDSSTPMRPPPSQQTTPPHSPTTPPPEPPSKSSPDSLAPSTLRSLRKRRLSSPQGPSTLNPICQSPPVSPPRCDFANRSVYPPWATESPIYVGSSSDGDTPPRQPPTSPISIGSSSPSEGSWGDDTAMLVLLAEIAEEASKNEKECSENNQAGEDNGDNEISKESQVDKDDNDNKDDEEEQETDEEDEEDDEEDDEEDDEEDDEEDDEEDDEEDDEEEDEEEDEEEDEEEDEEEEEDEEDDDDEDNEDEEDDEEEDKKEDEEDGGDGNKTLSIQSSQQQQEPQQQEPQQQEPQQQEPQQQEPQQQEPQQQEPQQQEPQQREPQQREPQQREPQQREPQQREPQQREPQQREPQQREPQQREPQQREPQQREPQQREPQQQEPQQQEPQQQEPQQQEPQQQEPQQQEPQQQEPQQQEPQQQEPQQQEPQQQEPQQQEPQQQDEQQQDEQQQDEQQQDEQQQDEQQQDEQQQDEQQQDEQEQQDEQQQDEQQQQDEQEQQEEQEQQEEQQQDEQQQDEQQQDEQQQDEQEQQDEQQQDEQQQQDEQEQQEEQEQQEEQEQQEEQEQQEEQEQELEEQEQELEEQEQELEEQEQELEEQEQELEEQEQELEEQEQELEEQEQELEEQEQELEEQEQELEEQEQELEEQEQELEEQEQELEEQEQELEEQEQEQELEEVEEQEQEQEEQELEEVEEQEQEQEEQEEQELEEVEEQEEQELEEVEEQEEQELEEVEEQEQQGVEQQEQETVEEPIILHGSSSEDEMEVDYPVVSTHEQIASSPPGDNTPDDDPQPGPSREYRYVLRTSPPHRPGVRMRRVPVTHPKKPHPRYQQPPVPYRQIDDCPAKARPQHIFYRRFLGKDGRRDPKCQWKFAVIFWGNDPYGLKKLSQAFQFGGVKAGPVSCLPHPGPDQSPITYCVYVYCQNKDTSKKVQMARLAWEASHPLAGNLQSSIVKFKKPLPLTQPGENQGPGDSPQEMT
# E coli growth: inhibitors of Escherichia coli growth; OD600 absorbance (no concentration beside the values); AID 1053175; OD600, 23 h; stronger effect = lower value; 0.21% of 330,000 active;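 active = OD600 absorbance below the run mean of sample wells minus 3.6 SD, in any replicate, cut at about 0.56 in these data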;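 note: stock transfer was 300 nL into about 60 µL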
# B2AR ag: human beta-2 adrenergic receptor agonism by FAP; P07550; Am2.2-beta2AR cells, FAP receptor internalization, flow cytometry; reference of the scale not given here; response, % (concentration not given with the values); 0.43% of 340,000 active;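 active = response above a set limit, near 3 SD of response in nonfluorescent compounds, cut at about 42% in these data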;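 note: stock transfer was 100 nL into about 11 µL; a reference agonist was the positive control; negative values mostly stem from fluorescent compounds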
# HNF4A DNA FP: change in binding of human HNF4 alpha to DNA; P41235; HNF4a-FITC DNA binding, fluorescence polarization, 1 h; 0.3% of 360,000 active; activity change, % at 10 µM; AID 1224865; in the data active = activity change above about 30%, passing the limit was not always enough;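 note: controls were the assay level and a saturating level of protein; the project sought stronger binding though the title names inhibitors; some compounds called inactive have numbers as strong as hits; positive values seem to mean higher polarization but the record does not say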
# ALR inh: human ALR oxidase inhibition via reduced H2O2; P55789; purified ALR, DTT oxidation, H2O2 HRP-luminol luminescence; inhibition, % (concentration not given with the values); 3.8% of 290,000 active; AID 485317;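 active = mean and each replicate at 75% or more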;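 note: stock transfer was 7.5 nL into about 7.5 µL; 0% = neutral wells and 100% = wells with inactivated enzyme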
# UCH37 inh: human UCH37 deubiquitinating enzyme inhibition; Q9Y5K5; purified proteasome/UCH37, Ub-AMC cleavage fluorescence; inhibition, % (no concentration beside the values); 0.33% of 330,000 active; AID 588478;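 active = mean of two replicates above 20%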;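 note: 0% = compound-free wells with enzyme and 100% = wells lacking proteasome; stock transfer was 100 nL into about 20 µL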
#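 Material: Human UCH37 enzyme supplied as purified proteasome complex | Schedule: 30 min preincubation with enzyme, 25 min cleavage at room temperature | Detection: AMC fluorescence 355/460 nm | Measure: % inhibition of Ub-AMC cleavage fluorescence | Controls: Wells without proteasome as full block, compound-free enzyme plus substrate as uninhibited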
# * marks the source's active call; other numbers are inactive results; i = inactive; x = no result given. This is a subset. The share of hits here may be higher or lower than overall.
smiles	FGF22 binding	LANA-H2A inh	E coli growth	B2AR ag	HNF4A DNA FP	ALR inh	UCH37 inh
COc1ccccc1C(=O)NCC(=O)NCCSc1ccc(Br)cc1	i	-2.0	0.701	-5.3	2.5	-5.1	1.1
O=C1CC(SCCO)C(=O)N1c1ccc(Oc2ccccc2)cc1 (stereo unspecified)	i	-9.0	0.678	-11.9	-0.9	-3.3	7.3
CC(C)(C)n1nnnc1C(c1cccnc1)N1CCN(c2cccc(C(F)(F)F)c2)CC1 (stereo unspecified)	x	-3.1	0.713	-2.6	0.8	-1.9	-1.0
Cc1ccc(C2SCC(=O)N2Cc2ccccc2)cc1 (stereo unspecified)	i	-0.6	0.677	-4.4	3.8	3.5	0.5
Cc1ccccc1NC(=O)CN1C(=S)NC(C)(C)CC1C (stereo unspecified)	x	0.9	0.665	4.7	0.0	-1.0	0.4
C=CCNC(=O)/C(=C\c1ccc(OC)cc1)NC(=O)c1ccc([N+](=O)[O-])cc1	i	-8.1	x	-3.4	-0.5	-10.7	4.6
CCc1cccc(C)c1NC(=O)CN(C)Cc1cccc(F)c1	i	x	0.698	4.8	0.0	x	5.7
O=C(CCNC(=O)C1CCN(S(=O)(=O)c2ccc(F)cc2)CC1)NCc1ccccc1	i	-2.6	0.66	0.4	-6.3	3.7	-2.7
CC1CCN(Cc2cc(=O)oc3ccc(C(C)C)cc23)CC1	i	-4.0	0.667	7.7	0.2	-6.9	4.8
Cc1ccc(C2(c3ccc(C)cc3)CC2C(=O)Nc2ccc([N+](=O)[O-])cc2O)cc1 (stereo unspecified)	x	0.3	0.659	18.2	-3.2	-0.5	8.4
COc1ccccc1OCC(=O)NC1CCCc2ccccc21 (stereo unspecified)	i	0.6	0.662	-3.5	2.3	x	2.5
CNc1nc(Sc2ccccc2)cc(C(F)(F)F)n1	x	-5.2	0.699	8.2	-3.5	6.6	2.8
O=C(Cc1ccccc1)NCC(=O)N1CCC1	i	-4.2	0.672	0.7	0.0	0.7	2.4
CCOC(=O)c1ccccc1-c1cn2cc(Cl)ccc2n1	i	-0.8	0.713	0.0	4.6	-3.6	0.1
CCCCOc1ccc(NC(=O)[C@@H]2CCCN2C(=O)C2CCN(S(=O)(=O)c3ccc(C)cc3)CC2)cc1	i	-3.6	0.663	-0.3	-1.4	-10.1	0.6
COc1ccccc1NC(=O)c1cnc2c(-c3ccccc3)c(C)nn2c1C	i	-1.9	0.693	10.9	0.5	-13.2	4.2
COC(=O)C1=C(C)N=C2SC(C#N)=C(N)N2C1c1cccc(OC)c1 (stereo unspecified)	x	-2.0	0.653	-2.8	1.6	21.6	13.3
COc1ccc(C(=O)N2[C@@H](C(C)C)COc3cc(Br)ccc3S2(=O)=O)cc1	i	x	x	-3.5	-1.8	x	x
COc1ccc(OC)c(-c2csc(NC(=O)C3=NNC(=O)CC3)n2)c1	i	-8.5	0.704	5.4	0.8	5.1	3.0
Cc1cc(C(=O)OCc2nc3ccccc3s2)c(C)o1	x	4.8	0.745	2.8	2.8	14.0	1.9
COC(=O)C1=C(CS(=O)(=O)c2ccc(Cl)cc2)NC(=O)NC1c1ccc(O)c(OC)c1 (stereo unspecified)	i	-1.7	0.699	-2.9	-1.4	10.2	6.5
CCOc1cc2[nH]c(=S)n(Cc3ccc(C(=O)O)cc3)c(=O)c2cc1OCC	i	1.4	0.664	3.4	4.8	27.8	7.8
COCCCC1CCN(C(=O)C2CCC(=O)N(C3CCCC3)C2)CC1 (stereo unspecified)	i	4.4	0.685	0.6	-1.4	-3.4	-0.4
Cc1nc([N+](=O)[O-])cn1CC(=O)c1ccc(OC(F)(F)F)cc1	x	3.7	0.648	11.4	-5.3	57.9	0.2
COC(=O)c1ccc(CS(=O)(=O)c2ccccc2C)o1	x	11.0	0.714	2.2	0.8	-1.1	3.2
CNC(=O)N(C1=NCC(C)(C)S1)c1ccc(F)c(Cl)c1	i	-6.1	0.75	-11.7	0.0	-32.0	2.9
CCc1ccccc1NC(=O)CCc1nc(-c2cccs2)no1	i	3.3	0.697	3.8	-4.3	-13.9	2.0
CC1Cc2ccccc2N1C(=O)C1CCCCN1S(=O)(=O)c1ccccc1 (stereo unspecified)	x	-7.2	0.737	0.8	-0.7	2.4	0.4
COc1ccc(CCNC(=O)C2CCN(S(=O)(=O)c3cc(OC)ccc3OC)CC2)cc1	x	-3.0	0.732	0.7	-2.8	-6.0	3.6
CCOC1(OCC)C(c2ccc(Cl)cc2)C(C#N)(C#N)C1(OCC)OCC (stereo unspecified)	x	0.4	0.702	4.0	3.3	x	1.2
Cc1ccc(C)c(NC(=O)C2(C)CC3c4ccccc4C2c2ccccc23)c1 (stereo unspecified)	x	-3.6	0.702	5.6	-3.1	5.5	0.5
O=C(NCCCNC(=O)c1ccccc1)c1ccccc1	i	-2.9	0.644	6.2	-1.0	-1.8	8.1
CSc1nsc(SCC(=O)Nc2ccccc2C(N)=O)n1	i	1.0	0.654	-7.0	-2.9	-10.0	0.5
COc1cc2c(cc1OC)C(C)N(C(=O)/C=C/c1cc(OC)c(OC)c(OC)c1)CC2 (stereo unspecified)	i	2.4	0.665	10.3	3.8	x	-7.6
O=C(Nc1ccc2c(c1)OCCO2)c1cnc2n(c1=O)CCS2	i	4.2	0.756	-16.2	-1.5	x	13.5
Cc1[nH]c(=O)c(C#N)c(C)c1CCC(=O)NCc1ccc(Cl)cc1	i	-2.6	0.7	7.5	4.7	x	-5.0
CCCCc1nc2ccccc2n1CC(=O)NN	x	-7.3	0.707	20.1	-0.8	4.7	3.8
C/C(=N\NC(=O)c1ccccc1F)c1cccc(NC(=O)c2ccccc2)c1	i	0.0	x	0.4	2.2	-5.0	x
CC(=O)c1ccc(N(C(=O)c2ccco2)C(C(=O)NC2CCCC2)c2cccs2)cc1 (stereo unspecified)	i	0.7	0.685	-3.6	1.3	-27.0	3.6
Cc1ccc2oc3nc(C)c(C(=O)O)cc3c(=O)c2c1	x	5.1	0.708	-5.6	0.5	-7.1	-98.7
Cc1ccccc1NC(=O)Cc1nc(COC(=O)C(C)C)cs1	i	-1.5	0.699	5.2	1.5	-0.8	-1.0
Cc1ccc(CC(=O)N2CCN(c3ccccn3)CC2)cc1	x	1.3	0.644	-7.5	3.5	3.9	-2.7
O=C(NCc1cccs1)C1CCN(S(=O)(=O)c2cccc([N+](=O)[O-])c2)CC1	i	-2.6	0.687	-1.5	3.6	-1.0	5.6
CCOC(=O)N1CCN(C(=O)c2ccc(CSc3ccc(Cl)cc3)cc2)CC1	i	x	0.704	1.7	0.8	x	3.1
COc1ccccc1NC(=O)CC12CC3CC(CC(Br)(C3)C1)C2	i	-3.5	0.687	23.7	-2.1	2.2	2.6
COc1cc2[nH]c(=O)n(CCC(=O)N3CC=C(c4ccccc4)CC3)c(=O)c2cc1OC	x	0.9	0.708	0.9	3.9	-4.7	-10.8
Cc1ccc(N(C)S(=O)(=O)c2cccc(C(=O)N3CCN(Cc4ccccc4)CC3)c2)cc1	i	0.7	0.693	-1.8	1.3	-4.9	3.4
COc1ccc(CCC(C)NCc2ccc(Cl)c(Cl)c2)cc1 (stereo unspecified)	i	-4.2	0.632	8.1	1.5	-5.8	4.3
COc1cccc(-c2nnn(CC(=O)N(CC(C)C)C3CCS(=O)(=O)C3)n2)c1 (stereo unspecified)	i	-1.2	0.708	-1.5	1.5	-10.0	4.4
COc1ccc(S(=O)(=O)N(C)C[C@H]2Oc3c(NC(=O)NC(C)C)cccc3C(=O)N([C@H](C)CO)C[C@@H]2C)cc1	i	5.8	0.709	-5.8	-4.7	x	14.9
CC1Cc2ccccc2N1C(=O)NC1CC(=O)N(c2ccc3c(c2)OCCO3)C1 (stereo unspecified)	i	6.3	0.689	0.9	3.1	10.9	6.9
Cc1ccc(S(=O)(=O)c2nc(N3CCOCC3)sc2Cl)cc1	x	-2.2	0.782	-1.1	2.8	-15.3	2.3
CNc1nc(N)c([N+](=O)[O-])c(NCC2CCCO2)n1 (stereo unspecified)	i	-1.4	0.64	-7.7	1.0	-9.8	17.8
O=C(CN1CCN(C2CCCCC2)CC1)Nc1ccc(Br)cc1	i	-9.2	0.655	-1.7	-3.5	x	2.0
CC1CCN(C(=O)c2ccc(NS(=O)(=O)c3cccs3)cc2)CC1	i	2.3	0.68	-4.1	-0.9	-14.3	3.3
O=C(Nc1ccncc1)C1CC(=O)N(c2ccccc2)C1 (stereo unspecified)	i	x	x	3.9	-1.7	x	x
CCC(CC)C(=O)Nc1cc([N+](=O)[O-])ccc1F	x	-4.4	0.69	-2.7	2.8	-0.2	3.0
COc1cc(-c2noc(C)c2C(=O)NCc2ccc(C)o2)cc(OC)c1OC	i	x	0.699	16.1	-1.6	5.5	2.1
COc1nc2ccccc2nc1OC	i	1.9	0.73	6.5	0.8	-3.4	4.8
Cc1nn(CCCC(=O)NC2CCC(C)CC2)c(=O)c2nn(-c3ccccc3)c(C)c12 (stereo unspecified)	i	-3.5	0.664	-0.6	-2.0	-2.5	-1.3

# Next part:
smiles	FGF22 binding	LANA-H2A inh	E coli growth	B2AR ag	HNF4A DNA FP	ALR inh	UCH37 inh
O=C(NNC(=O)c1cc2ccccc2oc1=O)c1ccccc1[N+](=O)[O-]	i	2.2	0.692	0.5	16.2	-15.2	6.3
Nn1c(Cc2cccc3ccccc23)nnc1SCC(=O)N1CC(=O)Nc2ccccc21	x	-4.6	0.695	-6.5	4.0	-1.5	4.9
Cc1cc(Cl)ccc1OCC(=O)NC(=S)Nc1ccccc1N1CCOCC1	i	-1.7	0.726	-4.5	-4.6	14.0	1.0
Cc1ccc(NC(=O)C2CCCCC2C(=O)O)cc1Cl (stereo unspecified)	i	-1.0	0.695	2.4	-2.6	-2.9	5.7
COc1cccc(OC)c1C(=O)Nc1nnc(-c2ccc(F)cc2)s1	i	4.3	0.701	10.8	4.5	48.2	1.2
CCN(CC(=O)NCc1ccc(Cl)cc1)C(=O)CCc1ccccc1	i	-0.9	0.656	-8.2	-0.5	-45.4	-0.2
CCOc1ccc(S(=O)(=O)N2CCOCC2)cc1NC(=O)CN1C(=O)NC2(CCCCC2)C1=O	i	23.9*	0.674	-0.9	-5.2	-8.8	0.8
Cc1ccc(OCC(=O)N/N=C2/SCC(=O)N2Cc2ccco2)cc1	i	2.5	x	-3.4	3.5	-1.9	x
CCC(=O)c1cn(CC(=O)NCc2cccnc2)c2ccccc12	x	2.5	0.662	-7.8	1.7	0.8	1.1
O=c1c(-c2ccc(F)cc2)coc2cc(O)ccc12	i	1.8	0.641	2.2	-0.7	-1.2	-75.6
CCS(=O)(=O)c1nc(S(=O)(=O)c2ccc(Cl)cc2)c(N2CCC(C(N)=O)CC2)s1	i	8.3	0.696	-6.7	-0.4	-1.6	4.0
O=C(c1ccc2c(c1)[nH]c(=S)n1c3ccccc3nc21)N1CCN(c2ncccn2)CC1	x	2.9	0.778	62.2*	0.1	-5.7	1.3
CC(C)(C)c1ccc(S(=O)(=O)CCc2ccccn2)cc1	x	2.9	0.69	0.2	-1.0	1.3	-13.7
COc1ccc(C(=O)N2CCC(C(=O)Nc3ccc4c(c3)OCCO4)CC2)cc1	x	-2.8	0.732	-0.4	0.0	-2.2	1.0
CC1(c2ccccc2Br)NC(=O)N(CC(=O)N2CCc3ccccc3C2)C1=O (stereo unspecified)	i	-2.4	0.679	-0.7	-1.5	-1.2	1.6
CC(C)NC(=O)N1CCN(c2ccncc2S(=O)(=O)N2CCOCC2)CC1	x	x	0.743	2.9	1.8	x	2.1
Cn1c(CCN2CCN(c3ccccn3)CC2)nc2cc(NC(=O)COc3ccc([N+](=O)[O-])cc3)ccc21	i	4.4	0.731	-0.9	1.4	-50.0	1.8
